Compound activity as filed in PubChem BioAssay.
Mtb MbtI inh: blocks the Mycobacterium tuberculosis siderophore enzyme MbtI | purified MbtI enzyme, fluorescence intensity read-out | inhibition, %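 (about 17 µg/mL by stock and volumes)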 | 100,000 compounds, 0.89% hits | AID 493033;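 active = above 50% in both replicates, above 80% if mildly self-fluorescent; inactive = the rest, strongly fluorescent compounds included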;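 also: 0% = mean of negative and 100% = mean of positive controls; one replicate is shown; some compounds called inactive have numbers as strong as hits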
Target sequence (P9WFX0 whole entry, looked up): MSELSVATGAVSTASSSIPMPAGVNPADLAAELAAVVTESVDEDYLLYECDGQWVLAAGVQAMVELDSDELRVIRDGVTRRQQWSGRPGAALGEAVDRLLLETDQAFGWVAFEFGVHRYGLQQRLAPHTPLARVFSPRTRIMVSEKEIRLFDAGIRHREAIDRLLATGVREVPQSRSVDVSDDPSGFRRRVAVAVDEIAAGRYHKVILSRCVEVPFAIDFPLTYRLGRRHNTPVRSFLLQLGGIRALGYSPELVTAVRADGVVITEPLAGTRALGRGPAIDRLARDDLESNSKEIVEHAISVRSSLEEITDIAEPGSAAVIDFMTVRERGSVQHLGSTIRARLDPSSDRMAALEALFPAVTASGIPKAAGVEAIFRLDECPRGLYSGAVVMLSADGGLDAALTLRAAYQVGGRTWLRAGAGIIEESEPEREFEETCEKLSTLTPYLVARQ
PV pol inh: poliovirus RNA polymerase inhibition. 150,000 compounds, 0.66% hits. poliovirus polymerase elongation, fluorescence polarization; stronger effect = lower value. P03300. AID 588519. % elongation, % (compound at 16.7 µg/mL); in the data active = % elongation below about 90%; also: some results filed as inactive read as strong as hits
Mtb MenB inh: inhibitors of Mycobacterium tuberculosis MenB enzyme; P9WNP5; 100,000 compounds, 0.43% hits; inhibition, %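 (about 12 µg/mL by stock and volumes)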; MenB enzyme assay, absorbance read-out; some hits fall short of the stated cut;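 active = mean of two replicates above 30%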;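 also: 0% = no compound and 100% = wells with inactive enzyme; the first replicate is given; strong numbers were not always called active; inactives centre near -10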
Target sequence (P9WNP5 whole entry, looked up): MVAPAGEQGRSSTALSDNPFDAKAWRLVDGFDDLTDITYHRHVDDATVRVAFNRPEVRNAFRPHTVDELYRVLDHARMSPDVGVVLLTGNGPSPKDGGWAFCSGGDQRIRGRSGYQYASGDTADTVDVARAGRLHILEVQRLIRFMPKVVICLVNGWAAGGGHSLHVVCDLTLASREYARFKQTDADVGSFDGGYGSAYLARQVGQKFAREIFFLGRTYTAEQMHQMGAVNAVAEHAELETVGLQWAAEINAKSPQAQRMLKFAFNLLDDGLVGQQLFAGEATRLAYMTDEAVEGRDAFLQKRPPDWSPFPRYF
PV pol inh intensity: also measured in PV pol inh; calls as there; % elongation; measured here: total intensity read-out; formula for this scale not given here;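 total fluorescence in place of polarization; lower means less elongation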
An asterisk follows results filed as active; i = inactive; / = no result given. Outcome played no part in choosing rows; overall some 1.7% were active at least once.

SMILES	Mtb MbtI inh	PV pol inh	PV pol inh intensity	Mtb MenB inh
O=C(Nc1ccc(I)cc1)c1ccc(COc2ccccc2Br)o1	/	102	109	-9
OCCSc1sc(=S)sc1SCCO	40	98	99	-47
Cn1nc(C(=O)N2CCCC2)c2c1-c1ccccc1SC2	4	100	105	-13
CC(C)(CNS(=O)(=O)c1ccccc1Br)N1CCOCC1	-10	102	103	-1
CC1CCN(CCC(=O)Nc2ccc(Br)cc2)CC1	-5	99	103	31
CC(C)CCNC(=O)c1cc2c(=O)n3ccccc3nc2s1	34	100	92	-4
COc1cccc(CNC(=O)CCn2nc(-c3ccccc3)ccc2=O)c1	4	102	105	8
CCC(C)N1CC(C(=O)O)CC1=O (configuration not stated)	-3	101	103	-23
O=C(NC1CCCCCC1)C1Cc2cc(Cl)ccc2O1 (configuration not stated)	-4	110	109	-5
CC(C)c1ccc(NC(=O)C(c2ccccc2)N2CCN(C=O)CC2)cc1 (configuration not stated)	-4	101	104	-36
O=C(NCCc1ccccc1)Nc1ccc2c(c1)N(Cc1ccccc1)C(=O)c1ccccc1S2	-11	103	108	-11
O=C(Cn1nc(-c2ccc3c(c2)OCCO3)ccc1=O)Nc1ccc(N2CCOCC2)cc1	10	101	104	19
C/C(N)=C(/C#N)C(=O)CSc1ncnc2scc(-c3ccccc3)c12	13	107	99	7
O=C(CCCn1nc(-c2ccccc2)c2ccccc21)N1CCN(c2ccc(F)cc2)CC1	32	101	104	-44
Cc1ccc(NC(=O)CN(C)C(=O)COc2cccc(-n3cnnn3)c2)cc1	-10	105	100	-16
Cc1cc(C(=O)OCC(=O)NC2CCCCC2C)c2ccccc2n1 (configuration not stated)	-11	101	104	/
COc1ccc(-c2cn3c(n2)CCC3)cc1	-8	101	97	/
CC1(C)CC(=O)C(=Cc2cn(CCC#N)nc2-c2ccccc2)C(=O)C1	-4	100	106	-13
CC(=O)OC1COC(N2CCc3ccccc32)C(OC(C)=O)C1OC(C)=O (configuration not stated)	-10	100	98	-5
COc1cc(NC(=O)CS)cc(OC)c1	90*	99	101	-107

Next section, overlapping the part above by seven compounds.
SMILES	Mtb MbtI inh	PV pol inh	PV pol inh intensity	Mtb MenB inh
O=C(CCCn1nc(-c2ccccc2)c2ccccc21)N1CCN(c2ccc(F)cc2)CC1	32	101	104	-44
Cc1ccc(NC(=O)CN(C)C(=O)COc2cccc(-n3cnnn3)c2)cc1	-10	105	100	-16
Cc1cc(C(=O)OCC(=O)NC2CCCCC2C)c2ccccc2n1 (configuration not stated)	-11	101	104	/
COc1ccc(-c2cn3c(n2)CCC3)cc1	-8	101	97	/
CC1(C)CC(=O)C(=Cc2cn(CCC#N)nc2-c2ccccc2)C(=O)C1	-4	100	106	-13
CC(=O)OC1COC(N2CCc3ccccc32)C(OC(C)=O)C1OC(C)=O (configuration not stated)	-10	100	98	-5
COc1cc(NC(=O)CS)cc(OC)c1	90*	99	101	-107
O=C1OC(c2ccccc2Cl)=N/C1=C/c1ccco1	-4	105	110	/
CCc1cc(C(=O)N2CCOCC2)c(NC2=NS(=O)(=O)c3ccccc32)s1	-1	101	104	-16
Cc1ccc(C2C(C#N)=C(N)OC3=C2C(=O)CC(C)(C)C3)s1 (configuration not stated)	-13	102	102	-54
NC(=O)COC(=O)C1CCCN(C2=NS(=O)(=O)c3ccccc32)C1 (configuration not stated)	-4	102	105	0
O=C(COC(=O)Cc1c(Cl)cccc1Cl)NCC1CCCO1 (configuration not stated)	-6	102	100	/
O=C(Cn1cc(S(=O)(=O)CC(=O)N2CCc3ccccc32)c2ccccc21)N1CCCC1	-6	105	97	-29
CS(=O)(=O)Nc1ccc(-c2cn3ccccc3n2)cc1	i	101	103	-18
COc1cccc(C(=O)Nc2ccc(Cc3ccc(NC(=O)c4cccc(OC)c4)cc3)cc2)c1	8	105	106	-57
COC(=O)c1ccccc1NC(=O)c1oc2c(c1C)-c1[nH]ncc1CC2	125	98	100	-11
Nc1nc(Cl)c(-c2ccccc2)c(Cl)n1	-10	102	106	/

Quoted from the listing.
Result for COc1cccc(C(=O)Nc2ccc(Cc3ccc(NC(=O)c4cccc(OC)c4)cc3)cc2)c1 under PV pol inh: 105
Result for COC(=O)c1ccccc1NC(=O)c1oc2c(c1C)-c1[nH]ncc1CC2 under Mtb MbtI inh: 125
Result for NC(=O)COC(=O)C1CCCN(C2=NS(=O)(=O)c3ccccc32)C1 (configuration not stated) under Mtb MbtI inh: -4
Result for CCc1cc(C(=O)N2CCOCC2)c(NC2=NS(=O)(=O)c3ccccc32)s1 under PV pol inh: 101
Result for O=C(Cn1cc(S(=O)(=O)CC(=O)N2CCc3ccccc32)c2ccccc21)N1CCCC1 under Mtb MenB inh: -29

More entries
SMILES	Mtb MbtI inh	PV pol inh	PV pol inh intensity	Mtb MenB inh
O=C(CN(c1ccc2c(c1)OCCO2)S(=O)(=O)c1ccccc1)N1CCCCCC1	1	99	102	-14
Nc1nc(-c2cc3c(cc2Br)OCCO3)cs1	0	96	99	-5
CCNS(=O)(=O)c1ccc(-c2cc(C(=O)OCC)no2)s1	70	100	102	-18
O=C(NCC(c1cccs1)S(=O)(=O)c1ccc(Cl)cc1)C1CC1 (configuration not stated)	-10	104	101	-22
CC(C)(C)C(=O)NC1CCN(C(=O)NCc2ccccc2)CC1	-9	102	106	-5
Cc1cc(C(=O)COC(=O)C2Cc3ccccc3CN2S(C)(=O)=O)c(C)n1-c1nccs1 (configuration not stated)	-9	110	118	-10
Cc1cc(NC(=O)COCc2cc(-c3ccc4c(c3)OCO4)on2)nn1Cc1ccc(Cl)cc1	59	100	102	-40
CNC(=O)c1cc2c(n(-c3ccccc3)c1=O)CC(C)(C)CC2=O	73	101	100	-22
CC1Cc2cc(S(=O)(=O)N3CCCC3)ccc2N1C(=O)C1CCC1 (configuration not stated)	-12	102	99	-2
CC(C)C12CN3CC(C(C)C)(CN(C1)C3(C)C)C2=O	-9	104	100	-69

Some entries already given, limited to Mtb MenB inh, Mtb MbtI inh and PV pol inh.
mol | Mtb MenB inh | Mtb MbtI inh | PV pol inh
Nc1nc(-c2cc3c(cc2Br)OCCO3)cs1 | -5 | 0 | 96
CCNS(=O)(=O)c1ccc(-c2cc(C(=O)OCC)no2)s1 | -18 | 70 | 100
O=C(NCC(c1cccs1)S(=O)(=O)c1ccc(Cl)cc1)C1CC1 (configuration not stated) | -22 | -10 | 104
CC(C)(C)C(=O)NC1CCN(C(=O)NCc2ccccc2)CC1 | -5 | -9 | 102
Cc1cc(C(=O)COC(=O)C2Cc3ccccc3CN2S(C)(=O)=O)c(C)n1-c1nccs1 (configuration not stated) | -10 | -9 | 110
Cc1cc(NC(=O)COCc2cc(-c3ccc4c(c3)OCO4)on2)nn1Cc1ccc(Cl)cc1 | -40 | 59 | 100
CNC(=O)c1cc2c(n(-c3ccccc3)c1=O)CC(C)(C)CC2=O | -22 | 73 | 101

Going on with the list.
SMILES	Mtb MbtI inh	PV pol inh	PV pol inh intensity	Mtb MenB inh
COc1ccccc1N1CCN(CC(=O)n2c3ccccc3c3ccccc32)CC1	2	102	101	9
CCn1c(SCc2cccc(C)c2)nnc1C(C)NC(=O)c1ccccc1 (configuration not stated)	-16	103	103	-20
Oc1cc2ccccc2cc1-c1nnc2n1-c1ccccc1SC2	-2	104	105	-4
CN(C)c1ccc(C(c2cc3c(cc2O)OCO3)N2CCCCC2)cc1 (configuration not stated)	/	103	108	-17
CCn1c(CNC(=O)Cc2c(F)cccc2Cl)nnc1SC	-1	103	101	0
CCOC(=O)c1cnc2cc(C(F)(F)F)ccc2c1N1CCCCCC1	-13	101	103	-33
CCOC(=O)C1=C(C)OC(N)=C(C#N)C12C(=O)N1c3c(cccc32)C(C)CC1(C)C (configuration not stated)	-11	100	103	-33
COc1ccc(/C=C/C(=O)OCC(=O)Nc2cccc(Cl)c2)cc1	-3	103	105	/
CCN(CC)S(=O)(=O)c1ccc2c(c1)nc(CCC(=O)OCN1C(=O)c3ccccc3C1=O)n2C	-4	103	105	-18
O=C(Cn1cc(S(=O)(=O)N2CCCC2)ccc1=O)c1c[nH]c2ccccc12	12	103	110	-22
CC(C)NC(=O)c1cc2c(ccc3ccccc32)o1	120	102	102	-16
CCc1cccc(N2C(=O)C(Cc3ccccc3)N=C2N(Cc2ccco2)C2CCCC2)c1 (configuration not stated)	-299	102	104	-60
N#CCSc1ccccc1NC(=O)COC(=O)c1ccc(CN2CCCC2=O)cc1	-7	53	239	0
Cc1ccc(OCC(=O)NCc2ccccc2)cc1	30	99	104	-12
Cc1scc(CN2CCC3(CC2)OCCO3)c1C	-10	102	106	5
CCN(Cc1nc2cc(Cl)ccc2c(=O)[nH]1)C(=O)c1cccc(NC(C)=O)c1	8	101	94	-2
COc1ccc2c(c1)CCC/C(=N/O)C2=O	/	102	110	4
C[C@@H](C(=O)OCC(N)=O)N1C(=O)C2CC=CCC2C1=O (some centres not stated)	-25	101	102	-19
CCC(=O)N1CCc2cc(S(=O)(=O)Nc3ccc(OC(F)(F)F)cc3)ccc21	-4	103	106	-14
CC(C)(C)c1ccc(-c2cc3ccccn3c2)cc1	25	100	100	-25
Cc1noc(C)c1COC(=O)CCc1nc2cc(C(F)(F)F)ccc2n(Cc2ccccc2)c1=O	-5	106	110	-27
Cc1ccc2c(c1)N(CC(=O)NC1CCCc3ccccc31)C(=O)c1cccnc1O2 (configuration not stated)	-19	100	103	-2
Cc1ccc(S(=O)(=O)N2CC3(C)CN(S(=O)(=O)c4ccc(C)cc4)CC(C)(C2)C3)cc1	-14	103	107	-15
CCN=C1Cn2c(nc3scc(-c4ccccc4)c3c2=O)CN1CC	22	104	110	-57
Cc1onc(-c2c(Cl)cccc2Cl)c1NC(=O)Oc1ccc(CC#N)cc1	-2	103	107	-1
CC(C)=CCC/C(C)=C/CO	-17	101	102	0
CCOC(=O)N1CCN(CC(=O)NC(C)C)CC1	-6	101	106	-9
O=C(CN1CCCCC1)NC(=O)NC1CCCCC1	-4	105	104	5
O=S(=O)(c1cccc(Cl)c1Cl)N1CCN(c2ncccn2)CC1	4	106	105	-3
CC(=O)N1N=C(c2c(-c3ccccc3)c3cc(Cl)ccc3[nH]c2=O)CC1c1ccco1 (configuration not stated)	i	101	101	-3

Full records from above:
Cc1onc(-c2c(Cl)cccc2Cl)c1NC(=O)Oc1ccc(CC#N)cc1 reads Mtb MbtI inh = -2; PV pol inh = 103; PV pol inh intensity = 107; Mtb MenB inh = -1
CCN=C1Cn2c(nc3scc(-c4ccccc4)c3c2=O)CN1CC reads Mtb MbtI inh = 22; PV pol inh = 104; PV pol inh intensity = 110; Mtb MenB inh = -57

Next entries
SMILES	Mtb MbtI inh	PV pol inh	PV pol inh intensity	Mtb MenB inh
CCCS(=O)(=O)N1CCN(C2CCN(C(=O)OCC)CC2)CC1	-8	100	103	-7
Cc1ccc(S(=O)(=O)N2CCOCC2)cc1C(=O)OCC(=O)N1CCc2ccccc2C1	-7	105	113	-23
Cc1cccc(C(=O)N[C@@H]2C(=O)Nc3c(c(C)nn3C)[C@H]2c2ccccc2)c1	2	103	104	-28
CCCCN1CCC(C#N)(Nc2ccccc2)CC1	/	110	107	-19
CN1CC(C(=O)O)CC1=O (configuration not stated)	-15	105	102	-49
O=C1CC(N2CCN(S(=O)(=O)c3ccc(Cl)cc3)CC2)C(=O)N1CCc1ccccc1 (configuration not stated)	20	106	97	10
Cc1ccc(-n2ncc3c(=O)n(CC(=O)NCc4ccccc4Cl)cnc32)cc1C	12	102	83	-17
COc1ccc(S(=O)(=O)N2CCCCC2)cc1-c1nnc2c3ccccc3c(C)nn12	13	101	100	-16
CCn1c(=O)[nH]c2cc(C(=O)N3CCN(c4ccccc4)CC3)ccc2c1=O	-5	99	104	2
COc1ccc2cc(/C=N/NC(=O)CN3CCOCC3)c(Cl)nc2c1	18	98	110	-20
NC[C@H]1O[C@H](O[C@H]2C(O[C@@H]3O[C@H](CO)[C@@H](O)[C@H]3O)[C@@H](O)[C@H](N)C[C@@H]2N)[C@H](N)[C@@H](O)[C@@H]1O (some centres not stated)	-7	100	102	-4
Cc1ccc(NC(=O)COC(=O)c2ccc(S(=O)(=O)NCCC#N)cc2)cc1	-10	97	100	-23
O=c1c2cnn(CCO)c2ncn1C/C=C/c1ccccc1	-4	101	100	-7
OC(COc1ccc(Cl)cc1)CN1CCc2ccccc2C1 (configuration not stated)	-16	103	102	/
CCN(CC)c1nc2ccccc2[nH]c1=O	-13	123	167	6
Cc1cc(N2CCOCC2)c2c(N)cc(C)c(C)c2n1	-4	99	100	-60
COC(=O)c1ccc(Cn2cnc3c(nnn3-c3cc(C)cc(C)c3)c2=O)o1	-4	102	101	2
N#Cc1ccc(C(=O)n2nc3c4c(cccc42)C(=O)c2ccccc2-3)cc1	-7	101	95	-30
CC(C(=O)Nc1ccc(CN2CCOCC2)cc1)n1sc2ccccc2c1=O (configuration not stated)	-8	100	101	-1
CCCN(CCC)C(=O)C1CCCN1/C=C/C(=O)C(F)(F)F (configuration not stated)	15	108	103	-26
Cn1c(-c2ccco2)[n+](C)c2ccccc21	90	102	101	/
COc1ccc(C2NC(=O)c3ccccc3N2)cc1 (configuration not stated)	116	101	100	12
COc1ccc(-n2nc3ccc(NC(=O)c4ccc(-c5ccccc5)cc4)cc3n2)cc1	-3	101	96	-20
O=C(O)c1cnn(-c2ccccc2)c1	-10	100	106	-1
